YopH PTP inh: inhibitors of Yersinia enterocolitica YopH tyrosine phosphatase. fluorescence Ex485/Em525. inhibition, %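 (about 10 µM by stock and volumes)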. 140,000 tested, 0.16% active;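 active = inhibition of 50% or more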;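 also: controls were vehicle for no effect and minimum signal wells for full effect; inactives centre near -20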
RecA splice inh: inhibitors of M. tuberculosis RecA intein splicing; 290,000 tested, 0.75% active; inhibition, %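 (about 9 µM by stock and volumes)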; P9WHJ3; cell-free RecA intein splicing, fluorescence; in the data active = inhibition above about 30%; inconclusive = no clear call, values can overlap the other calls;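 also: 0% = vehicle wells and 100% = reference inhibitor control wells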
Target sequence (P9WHJ3 whole entry, looked up, canonical isoform): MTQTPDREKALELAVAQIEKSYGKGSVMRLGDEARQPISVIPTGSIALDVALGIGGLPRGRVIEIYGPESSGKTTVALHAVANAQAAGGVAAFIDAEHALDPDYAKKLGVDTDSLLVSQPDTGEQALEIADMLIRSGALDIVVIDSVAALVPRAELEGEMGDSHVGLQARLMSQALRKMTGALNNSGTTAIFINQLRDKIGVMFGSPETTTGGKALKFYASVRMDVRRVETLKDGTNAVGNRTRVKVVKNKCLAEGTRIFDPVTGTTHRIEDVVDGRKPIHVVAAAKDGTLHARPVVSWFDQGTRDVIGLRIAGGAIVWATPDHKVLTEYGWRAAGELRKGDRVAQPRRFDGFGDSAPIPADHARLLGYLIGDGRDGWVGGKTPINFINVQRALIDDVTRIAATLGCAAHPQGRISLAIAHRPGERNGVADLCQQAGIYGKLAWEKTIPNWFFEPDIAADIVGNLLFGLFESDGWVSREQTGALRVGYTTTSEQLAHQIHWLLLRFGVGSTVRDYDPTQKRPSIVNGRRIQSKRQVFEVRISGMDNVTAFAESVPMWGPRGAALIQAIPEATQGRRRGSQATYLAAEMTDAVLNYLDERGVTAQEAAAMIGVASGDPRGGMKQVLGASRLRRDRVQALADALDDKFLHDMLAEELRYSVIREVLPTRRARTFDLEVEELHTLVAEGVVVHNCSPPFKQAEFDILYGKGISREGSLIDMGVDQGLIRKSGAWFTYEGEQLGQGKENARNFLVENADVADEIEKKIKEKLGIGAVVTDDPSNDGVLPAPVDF
Arbovirus anti: arbovirus infection inhibition. 200,000 tested, 0.37% active. AID 1251. inhibition, % at 10 µM. arbovirus infection cell-based antiviral screen;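 active = inhibition from about 30%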;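 also: bluetongue infection of BSR cells; cell survival read as ATP light after 72 h; 0% = infected wells without compound and 100% = uninfected wells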
Mtb growth: M. tuberculosis H37Rv growth inhibitors, H37Rv strain (AID 1626); one-dose inhibition, % at 10 µM; IC50 in µM for titrated hits; 220,000 tested, 0.95% active; M. tuberculosis H37Rv growth inhibition; higher % means a stronger effect;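 active = confirmed in a dose series; inconclusive = inhibition above 80% but not taken into the dose series; inactive = below 80% or under 30% at every dose of the series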;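 also: bacteria incubated seven days before Alamar blue readout; 0% = bacteria only wells and 100% = bacteria with antibiotic wells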
Mtb betalactam: beta-lactam sensitization of Mtb H37Rv; M. tuberculosis H37Rv growth with meropenem, percent inhibition; hits of this screen are not shown here; inhibition, % at 25 µM; 330,000 tested, 0.27% active; AID 434955;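 active = about 74% or more and at least 40 points above the plate without the antibiotic, then above 30% in a dose series; inconclusive = first-round hits that could not be retested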;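 also: growth measured after seven days incubation then overnight dye step; 0% = bacteria only wells and 100% = bacteria with antibiotic; twin plates without the antibiotic show which effects depend on it; some results filed as inactive read as strong as hits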
The depositor's hits bear a star; & = joins results of further samples. This is a subset; count on the stated rates, not on these rows.

O=C(Nc1c[nH]c(=O)[nH]c1=O)c1cc([N+](=O)[O-])cc([N+](=O)[O-])c1 was read as RecA splice inh 0.3 and Mtb betalactam 6.
Cc1ccc[n+](CC(=O)c2ccc(Br)cc2)c1C was read as RecA splice inh -4.4 and Mtb betalactam 2.
Screening CC(C)=NNc1nc(-c2ccc([N+](=O)[O-])cc2)cs1 returned RecA splice inh -1.5, Arbovirus anti -24, Mtb growth inconclusive and Mtb betalactam 84.
For CS(=O)(=O)N1N=C(c2ccccc2)CC1c1ccc2c(c1)OCO2 (stereo not drawn) the results were YopH PTP inh -19, RecA splice inh 1.1, Arbovirus anti 2, Mtb growth -3% and Mtb betalactam -3.
CCc1ccc2c(c1)C(=O)C(=O)N2CC(=O)Nc1ccc(NC(=O)c2ccccn2)cc1 was read as Arbovirus anti -7, Mtb growth -6% and Mtb betalactam 5.
COC(=O)C(NC(=O)CCc1c(C)nc2ncnn2c1C)C(C)C (stereo not drawn) was read as YopH PTP inh -10, RecA splice inh -4.3, Arbovirus anti 3, Mtb growth -3% and Mtb betalactam 1.
`COc1ccc(-c2cc(C(=O)N3CCN(c4ccccc4F)CC3)c3ccccc3n2)c(OC)c1` gave RecA splice inh 1.7 and Mtb betalactam 37.
Cc1cn(C2OC(COC(=O)c3ccccc3)C(OC(=O)c3ccccc3)C2OC(=O)c2ccccc2)c(=O)[nH]c1=O (stereo not drawn) was read as YopH PTP inh 0, RecA splice inh 2.9, Arbovirus anti -1, Mtb growth 5% and Mtb betalactam -6.
O=C(N/N=C/c1cc2ccccc2nc1Cl)c1ccncc1 was read as RecA splice inh 1.4, Arbovirus anti 19, Mtb growth inconclusive and Mtb betalactam 98.
For CCCCC(NC(=O)Cc1c(C)c2cc3c4c(oc3cc2oc1=O)CCCC4)C(=O)O (stereo not drawn) the results were RecA splice inh -6.3 and Mtb betalactam inconclusive.
O=C1Nc2ccccc2N(O)N1c1ccc(S(=O)(=O)N2CCCCCC2)cc1 was read as YopH PTP inh -12, RecA splice inh -3.3, Arbovirus anti -2, Mtb growth -4% and Mtb betalactam 4.
Cc1cc(=O)oc2cc(Oc3ncccc3[N+](=O)[O-])ccc12 was read as RecA splice inh -6.2, Arbovirus anti 1, Mtb growth 9.5µM* and Mtb betalactam 99.
Screening O=C(CCNS(=O)(=O)c1ccc(Br)s1)Nc1ccc(Cl)cc1 returned YopH PTP inh -32, RecA splice inh 5.0, Arbovirus anti -3, Mtb growth 36% and Mtb betalactam 8.
`CCOc1ccccc1C(=O)N1CCN(C(c2ccccc2)c2ccccc2)CC1` gave YopH PTP inh -20, RecA splice inh -2.5, Arbovirus anti -5, Mtb growth 1% and Mtb betalactam -3.
For Nc1nonc1-n1nnc(C(=O)N/N=C/c2c[nH]c3ccccc23)c1-c1ccccc1 the results were RecA splice inh 0.6 and Mtb betalactam -12.
O=C(N/N=C/c1ccco1)c1cc(-c2cccc3ccccc23)n[nH]1 was read as YopH PTP inh -2, RecA splice inh 4.2, Arbovirus anti -4, Mtb growth -4% and Mtb betalactam 53.
`CCOC(=O)C1C(=O)NC(N2CCOCC2)=NC1C(C)C` (stereo not drawn) gave YopH PTP inh -46, RecA splice inh -2.8, Arbovirus anti -4, Mtb growth -7% and Mtb betalactam 3.
Cc1ccc(NC(=O)c2c(Cl)nc3ccccn23)cc1 was read as RecA splice inh 0.0, Arbovirus anti -1, Mtb growth -5% and Mtb betalactam 5.
For O=C(NCCC1CCCCN1S(=O)(=O)c1cccs1)C(=O)Nc1ccc(F)cc1F (stereo not drawn) the results were RecA splice inh -0.3 and Mtb betalactam -7.
C=CCN1C(=O)/C(=C/c2ccc(OCC(=O)O)cc2)S/C1=N/c1nccs1 was read as YopH PTP inh 7, RecA splice inh 4.7, Arbovirus anti 1, Mtb growth -2% and Mtb betalactam 94.

Some of these compounds in order of length of the SMILES, descending.
Cc1cn(C2OC(COC(=O)c3ccccc3)C(OC(=O)c3ccccc3)C2OC(=O)c2ccccc2)c(=O)[nH]c1=O (stereo not drawn) was read as YopH PTP inh 0, RecA splice inh 2.9, Arbovirus anti -1, Mtb growth 5% and Mtb betalactam -6.
O=C(Nc1c[nH]c(=O)[nH]c1=O)c1cc([N+](=O)[O-])cc([N+](=O)[O-])c1 was read as RecA splice inh 0.3 and Mtb betalactam 6.
`COc1ccc(-c2cc(C(=O)N3CCN(c4ccccc4F)CC3)c3ccccc3n2)c(OC)c1` gave RecA splice inh 1.7 and Mtb betalactam 37.
CCc1ccc2c(c1)C(=O)C(=O)N2CC(=O)Nc1ccc(NC(=O)c2ccccn2)cc1 was read as Arbovirus anti -7, Mtb growth -6% and Mtb betalactam 5.
For Nc1nonc1-n1nnc(C(=O)N/N=C/c2c[nH]c3ccccc23)c1-c1ccccc1 the results were RecA splice inh 0.6 and Mtb betalactam -12.
For O=C(NCCC1CCCCN1S(=O)(=O)c1cccs1)C(=O)Nc1ccc(F)cc1F (stereo not drawn) the results were RecA splice inh -0.3 and Mtb betalactam -7.
`CCOc1ccccc1C(=O)N1CCN(C(c2ccccc2)c2ccccc2)CC1` gave YopH PTP inh -20, RecA splice inh -2.5, Arbovirus anti -5, Mtb growth 1% and Mtb betalactam -3.
COC(=O)C(NC(=O)CCc1c(C)nc2ncnn2c1C)C(C)C (stereo not drawn) was read as YopH PTP inh -10, RecA splice inh -4.3, Arbovirus anti 3, Mtb growth -3% and Mtb betalactam 1.
`CCOC(=O)C1C(=O)NC(N2CCOCC2)=NC1C(C)C` (stereo not drawn) gave YopH PTP inh -46, RecA splice inh -2.8, Arbovirus anti -4, Mtb growth -7% and Mtb betalactam 3.
Cc1ccc[n+](CC(=O)c2ccc(Br)cc2)c1C was read as RecA splice inh -4.4 and Mtb betalactam 2.

The results go on:
`Cc1csc(=O)n1CC(=O)OCC(=O)Nc1cc(Cl)ccc1[N+](=O)[O-]` gave RecA splice inh 2.2 and Mtb betalactam inconclusive.
Screening CCOc1ccccc1C(=O)Nc1nccs1 returned YopH PTP inh -21, RecA splice inh -6.9, Arbovirus anti -3, Mtb growth 10% and Mtb betalactam 6.
CC(=Nc1ccccc1C)C1=C(O)CSC1=O was read as YopH PTP inh -9, RecA splice inh -1.1, Arbovirus anti 1, Mtb growth 0% and Mtb betalactam 4.
For CCOc1cc(C(=O)O)cc(Cl)c1OC the results were YopH PTP inh 21, RecA splice inh -0.7, Arbovirus anti 2, Mtb growth -3% and Mtb betalactam 5.
CC(C)CCNC(=O)c1cccc(C(=O)NCCC(C)C)c1 was read as YopH PTP inh -25, Arbovirus anti -13, Mtb growth -4% and Mtb betalactam 2.
Screening COc1cc(-c2nnc(CSc3nnc(Nc4ccc(C(C)C)cc4)s3)o2)cc(OC)c1OC returned YopH PTP inh -7, RecA splice inh 3.3, Arbovirus anti 11, Mtb growth 11% and Mtb betalactam 1.
`CN1CCN(Cc2cn[nH]c2-c2ccc(F)cc2F)[C@@H](c2ccccc2)C1` gave RecA splice inh 0.2, Arbovirus anti 5, Mtb growth 7% and Mtb betalactam 2.
For CS/C(=C\C(=O)c1ccco1)Nc1ccccc1Cl the results were RecA splice inh 6.6, Mtb growth 6% and Mtb betalactam 8.
`CCn1c(=O)cc(OCC(=O)N2CCN(c3ccc(F)cc3)CC2)c2ccccc21` gave RecA splice inh -0.6, Arbovirus anti -10, Mtb growth -3% and Mtb betalactam 9.
`Cc1cc(C)c(S(=O)(=O)NCc2cccnc2)cc1C` gave RecA splice inh -0.5 and Mtb betalactam 1.
`CC(C)C(C)NC(=O)CN1C(=O)NC2(CCc3ccccc3C2)C1=O` (stereo not drawn) gave RecA splice inh -3.1, Arbovirus anti 0, Mtb growth 9% and Mtb betalactam 1.
For Cc1ccc(C(=O)N2CCCC(C(=O)c3ccc(Oc4ccccc4)cc3)C2)cn1 (stereo not drawn) the results were RecA splice inh 1.7, Arbovirus anti -4, Mtb growth 7% and Mtb betalactam 0.
C/C(=N\NC(=O)Cn1nc(C)c([N+](=O)[O-])c1C)c1ccc(Cl)s1 was read as RecA splice inh -2.6, Mtb growth 2% and Mtb betalactam -2.
For COC(=O)c1ccc(OC(=O)C2CC(=O)N(c3ccc(C)cc3C)C2)cc1 (stereo not drawn) the results were YopH PTP inh -20, RecA splice inh 25, Arbovirus anti -5, Mtb growth 2% and Mtb betalactam 4.
`CC(NC(=O)c1ccc2c(=O)n3c(nc2c1)CCC3)c1ccc(S(N)(=O)=O)cc1` (stereo not drawn) gave RecA splice inh -0.5 and Mtb betalactam -9.
CC(=O)N1CCn2c3c(c(=O)c4cc(C)ccc42)CCC31 (stereo not drawn) was read as YopH PTP inh -23, Arbovirus anti 3 and Mtb betalactam 4.
O=S(=O)(NC1CCCCC1N1CCN(c2ccccc2F)CC1)c1ccccc1 (stereo not drawn) was read as RecA splice inh 5.8 and Mtb betalactam 10.
`O=C(OCCN1CCCCC1)c1ccc(O)cc1` gave YopH PTP inh -24, RecA splice inh 0.8, Arbovirus anti 2, Mtb growth 1% and Mtb betalactam -13.
Screening COc1ccc2c(Cl)c(C(=O)NN)sc2c1 returned YopH PTP inh -3, RecA splice inh -1.0, Arbovirus anti -15, Mtb growth 76% and Mtb betalactam 8.
For Cc1ccc(S(=O)(=O)Nc2ccc(N3CCCCC3)cc2)cc1 the results were RecA splice inh -3.0, Arbovirus anti 12, Mtb growth 9% and Mtb betalactam -4.
O=C(Oc1ccc(C(=S)N2CCC(O)CC2)cc1)c1ccc(Cl)cc1 was read as RecA splice inh 1.0, Arbovirus anti -1, Mtb growth 2% and Mtb betalactam -5.
`CO[C@H]1O[C@H](CBr)[C@@H](OC(=O)c2ccccc2)[C@H](O)[C@H]1O` gave RecA splice inh 0.6 and Mtb betalactam -2.
`COc1cc(NC(=O)c2ccc3c(c2)OCCO3)ccc1NC(=O)c1ccccc1Cl` gave RecA splice inh 1.0 and Mtb betalactam 84.
Fc1ccc(SCCc2ccccn2)cc1 was read as RecA splice inh 0.7&0.5, Mtb growth -4%&10% and Mtb betalactam -2&-4.
For COc1ccc(/C=N/N(C(C)=O)c2nc(-c3ccc(C)cc3)cs2)cc1 the results were YopH PTP inh -33, RecA splice inh -1.2, Arbovirus anti 1, Mtb growth -12% and Mtb betalactam -8.
Screening Cn1c(SCC(=O)c2ccc(O)c(O)c2)nnc1-c1cccs1 returned RecA splice inh -8.2, Mtb growth 1% and Mtb betalactam -2.
CCCCNC(=O)[C@H]1C[C@H]1[C@@H](O)[C@H](CO)NC(=O)[C@H](CC(C)C)NC(=O)OC(C)(C)C was read as RecA splice inh 0.1 and Mtb betalactam -1.
`CCOc1cc(-c2noc(CCC(=O)Nc3cccnc3)n2)ccc1OC` gave YopH PTP inh -41, RecA splice inh 9.9, Arbovirus anti -5, Mtb growth -15% and Mtb betalactam -1.
CCC(C)(C)NC(=O)/C=C/c1cc(OC)c(OC)c(S(=O)(=O)N2CCc3ccccc32)c1 was read as RecA splice inh -2.3, Arbovirus anti -1, Mtb growth 6% and Mtb betalactam -7.
For C[C@@]12C(=O)N(c3cccc(Cl)c3)C(=O)N1[C@H](c1ccc(Cl)cc1)[C@@H]1C(=O)N(C3CCCCC3)C(=O)[C@@H]12 the results were RecA splice inh 1.9 and Mtb betalactam 17.
Screening COc1ccc(N2C(=O)CC(Sc3n[nH]c(-c4ccc(C)cc4)n3)C2=O)cc1 (stereo not drawn) returned RecA splice inh 2.1, Arbovirus anti -2, Mtb growth -4% and Mtb betalactam 6.
Screening Cc1ccc(NC(=O)CN(C)S(=O)(=O)c2ccc3[nH]c(=O)oc3c2)c(C)c1 returned RecA splice inh 1.1 and Mtb betalactam -9.
`COC(=O)c1ccccc1NC(=O)CSc1nnnn1C1CCCCC1` gave YopH PTP inh -34, RecA splice inh 2.9, Arbovirus anti -3, Mtb growth -3% and Mtb betalactam inconclusive.
For CCn1c(=O)c([N+](=O)[O-])c(Cl)c2ccccc21 the results were RecA splice inh 41*, Arbovirus anti -28, Mtb growth 8% and Mtb betalactam 46.
CCn1cc(-c2cc(C(F)(F)F)n3nc(C(=O)O)cc3n2)c(C)n1 was read as YopH PTP inh -30, RecA splice inh -0.2, Arbovirus anti -1, Mtb growth -11% and Mtb betalactam -5.
`Cc1nn(-c2ccccn2)c2c1C(c1ccccc1Cl)C1=C(N2)c2ccccc2C1=O` (stereo not drawn) gave YopH PTP inh -7, RecA splice inh -0.3, Arbovirus anti -10, Mtb growth 6% and Mtb betalactam 6.
Cc1cc(NC(=O)CSc2nnc(N)s2)c([N+](=O)[O-])cc1C was read as RecA splice inh -2.4, Arbovirus anti 4, Mtb growth 36% and Mtb betalactam 0.
Screening O=C(Nc1cccc(F)c1)N1CCC(n2c(=O)[nH]c3ccccc32)CC1 returned RecA splice inh -0.3, Mtb growth 3% and Mtb betalactam -4.
`CCOc1ccc(/C=N/NC(=O)c2cc3c(OC)cc(OC)cc3[nH]2)cc1OC` gave RecA splice inh -3.2 and Mtb betalactam 43.
